Source: PubChem
PrP 5UTR inh = suppresses PrP 5' UTR mRNA reporter expression; cell-based PrP 5' UTR mRNA reporter, plate reader; inhibition, % (no concentration beside the values); 340,000 compounds, 0.35% hits;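 active = every replicate at 50% or more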;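 also: 0 = median of the neutral control wells; tested in H4 reporter cells; numbers are from one replicate; inactives centre near -14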
BJeLR viability = BJeLR cell viability loss. BJeLR (HRASV12) viability, CellTiter-Glo ATP luminescence, 48 h; reference of the scale not given here. inhibition, % (no concentration beside the values). 300,000 compounds, 0.17% hits;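 active = replicate mean above 50%; inconclusive = above 50% but judged a plate artefact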;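 also: 50 nL library stock added to about 25 µL; numbers are from one replicate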
ugtP null kill = growth inhibition of S. aureus ugtP deletion strain. S. aureus RN4220 ugtP deletion, OD600 growth, 16 h; some inactives read as strong as hits. growth inhibition, % (no concentration beside the values). 330,000 compounds, 0.54% hits;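 active = z-score under -3 and OD600 up to 0.15 on both plates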;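 also: plate controls were untreated wells for no effect and antibiotic for full effect; wells of about 80 µL received 100 nL stock; the first replicate is given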
Mtb hypoxia rep = reduces hypoxia-regulated biosensor signal in M. tuberculosis; M. tuberculosis hypoxia-regulated fluorescent reporter, fluorescence; fluorescence inhibition, % (no concentration beside the values); 300,000 compounds, 0.1% hits; AID 1159583;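 active = 35 to 45% if threefold the growth effect, above 45% if 1.5-fold the growth effect; inactive = the rest, general growth blockers included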;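 also: wells of about 50 µL received 100 nL stock; 0% = vehicle wells and 100% = reference inhibitor wells; whole bacteria with a GFP reporter of the hypoxia response; strong numbers were not always called active; many hits fall short of the cut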
Sa RN4220 lethal = S. aureus RN4220 growth inhibition | OD600, 16 h | inhibition, % (test concentration not listed) | 330,000 compounds, 0.33% hits | AID 1259311;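 active = z-score of -3 or lower and OD600 up to 0.18 on both plates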;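 also: plate controls were untreated cells for no effect and reference antibiotic for full effect; stock transfer was 100 nL into about 80 µL; one replicate is shown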
Bead autofluor = counter-screen for toxin protease inhibitors: compound fluorescence | compound autofluorescence counterscreen, microsphere flow cytometry; active compounds read high | fluorescence intensity (no concentration beside the values) | 360,000 compounds, 3.1% hits | AID 624483;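 active = at least 3 SD above the mean of all compounds, about 16000 in these data; inconclusive = too few beads counted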;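 also: 100 nL of 1 mM stock went into each well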
Mtb hypoxia rep growth = also measured in Mtb hypoxia rep; calls as there; growth inhibition, %; measured here: M. tuberculosis growth (absorbance);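 0% = vehicle and 100% = reference antibiotic; read after six days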
* hit, by the source's call; u = inconclusive; x = not tested or not shown.

item | compound | PrP 5UTR inh | BJeLR viability | ugtP null kill | Mtb hypoxia rep | Mtb hypoxia rep growth | Sa RN4220 lethal | Bead autofluor
1 | CCOc1ccc2nc(SCC(=O)c3ccccc3)sc2c1 | -29 | -8 | 4 | 2 | 6 | 4.5 | 10516
2 | O=C(Nc1nnc(S(=O)(=O)Cc2ccc(F)cc2)s1)c1ccccc1F | -12 | -3 | 0 | 4 | -2 | 11 | 4721
3 | O=C(Nc1ccc(F)cc1)Nc1ccc(N2CCCC2)c(S(=O)(=O)Nc2ccccc2Cl)c1 | -7 | -16 | -41 | x | x | -4.1 | 1913
4 | O=C(CCCCC(=O)OCC1CCCO1)OCC1CCCO1 (configuration not stated) | -7 | x | 1 | 20 | 13 | -1.0 | 3610
5 | COc1ccccc1N1CCN(C(=O)Cn2nnc(-c3ccncc3)n2)CC1 | -35 | -1 | -1 | 18 | 12 | 0.2 | 4493
6 | CCN(C[C@H]1N[C@@](Cc2ccccc2)(C(=O)OC)[C@H]2C(=O)N(C)C(=O)[C@@H]12)C(=O)c1ccc(C(C)(C)C)cc1 | -10 | x | -2 | -3 | 5 | -1.6 | 3766
7 | O=C(NCc1ccncc1)C1CCN(S(=O)(=O)c2cc(Cl)ccc2Cl)CC1 | -13 | -5 | -1 | 6 | -4 | -0.7 | 3817
8 | CCCCc1nnc(SCC(=O)Nc2nccs2)n1C | -26 | 8 | 1 | -2 | 4 | 1.6 | 5520
9 | Cc1cc(C)n(CC(C)NC(=O)c2cc(COc3c(F)cccc3F)on2)n1 (configuration not stated) | -9 | -1 | 6 | 8 | 0 | 9.5 | 4227
10 | COc1c(C=NNC(N)=O)c(OC)c(OC)c2c1CCO2 | -24 | x | 6 | 14 | 14 | 2.6 | 3934
11 | C=CCOc1ccc(/C=C2\SC(=S)N(N3CCOCC3)C2=O)cc1 | -4 | -13 | -12 | -9 | 13 | -3.0 | 3528
12 | COc1ccccc1N1CCN(c2nc(C)nc3c2oc2ccccc23)CC1 | 5 | 4 | -29 | x | x | 21 | 10699
13 | CCS(=O)(=O)N1CCCC(C(=O)NCc2ccccc2Cl)C1 (configuration not stated) | -16 | -8 | 4 | 15 | 7 | -5.3 | 3471
14 | Cc1cccc(C)c1NC(=O)CN(C)CC(=O)c1c(N)n(Cc2ccccc2)c(=O)n(C)c1=O | -5 | x | 1 | 6 | -6 | 0.3 | 6474
15 | COc1ccc([N+](=O)[O-])cc1NC(=O)C1CCCN1S(=O)(=O)c1cccs1 (configuration not stated) | -21 | 1 | 3 | 8 | 1 | -0.1 | 6221
16 | COc1ccc(Cl)cc1C(=O)NNC(=O)CCNC(C)=O | -5 | 2 | 0 | -10 | 0 | 0.5 | 3214
17 | COC(=O)NCC(c1ccc2c(c1)OCO2)N1CCN(c2ccccc2)CC1 (configuration not stated) | -4 | -2 | 4 | 0 | 0 | -1.2 | 5437
18 | COc1ccccc1CN1CC(C(=O)NCCN2CCOC2=O)CCC1=O (configuration not stated) | -10 | 0 | -7 | -8 | 4 | -5.3 | 4211
19 | CCCCC#Cc1cncc(C(=O)N/N=C/c2ccccc2)c1 | -9 | -3 | x | x | x | x | 3343
20 | N#Cc1cccc(NC(=O)Cc2ccccc2)c1 | -1 | 6 | 2 | 10 | 12 | 2.9 | 3823
21 | Cc1c(-n2c(O)c(C3=c4ccccc4=NC3=O)sc2=O)c(=O)n(-c2ccccc2)n1C | -17 | 10 | 12 | 5 | -8 | 5.6 | 3717
22 | COc1ccccc1C(=O)Nc1ccc(OCC(=O)N2CC(C)OC(C)C2)cc1 (configuration not stated) | -7 | x | 3 | 8 | 4 | 4.1 | 3677
23 | CN(C)S(=O)(=O)c1ccc(-c2ccccc2)cc1 | -21 | -10 | -5 | 7 | 13 | 7.8 | 2800
24 | Cc1c(NS(=O)(=O)c2ccc3c(c2)n(C)c(=O)n3C)c(=O)n(-c2ccccc2)n1C | -8 | 0 | -5 | 25 | -15 | -13 | 3208
25 | CCCC(NC(=O)C(C)Sc1nnnn1C1CC1)c1ccccc1 (configuration not stated) | 7 | x | 1 | -1 | -4 | 1.5 | 6400

Other compounds follow:
item | compound | PrP 5UTR inh | BJeLR viability | ugtP null kill | Mtb hypoxia rep | Mtb hypoxia rep growth | Sa RN4220 lethal | Bead autofluor
26 | COc1ccc2oc(CS(=O)c3ccccc3)c(C(=O)O)c2c1 (configuration not stated) | -15 | 0 | 11 | 2 | -5 | 4.4 | 3917
27 | Cc1ccc(S(=O)(=O)NCCC(=O)N2CCN(C/C=C/c3ccccc3)CC2)cc1 | -5 | x | -1 | 1 | 1 | -1.3 | 6745
28 | CCN(CC)CCNc1ncnc2c1[nH]c1ccc(OC)cc12 | x | -1 | 4 | 1 | 11 | 0.5 | x
29 | Cc1ccc(/C=C2\Oc3cc(OC(=O)N4CCOCC4)ccc3C2=O)cc1 | 5 | -5 | -1 | -4 | 1 | 3.3 | 2382
30 | O=C(O)c1ccc(C(=O)O)c(C(=O)c2ccc(NC(=O)c3ccccc3)cc2)c1 | -35 | 3 | 0 | -6 | -7 | 2.0 | 3507
31 | CCOc1ccc(NC(=S)N2CCN(CCN3C(=O)c4cccc5cccc(c45)C3=O)CC2)cc1 | -2 | -6 | 12 | -5 | -1 | 3.6 | 2068
32 | CC(=O)Nc1cccc(OC(=O)N2CCOCC2)c1 | 4 | -4 | 3 | x | x | 8.5 | 2780
33 | CCN(CC(=O)Nc1ccc(OC)cc1)C(=O)c1ccc([N+](=O)[O-])cc1 | -6 | 17 | -12 | -6 | 4 | 0.7 | 3228
34 | COc1ccc(C2CC(c3ccccc3)=NN2S(=O)(=O)c2ccc(C)cc2)c(OC)c1 (configuration not stated) | -23 | -9 | 10 | 7 | 1 | 1.2 | 20530*
35 | Cc1ccc(S(=O)(=O)N(C)CC(=O)N2CCC(C(N)=O)CC2)cc1 | -15 | -6 | 1 | 5 | -2 | 1.8 | 2844
36 | CCCCSc1nnc(CCNC(=O)OC(C)(C)C)o1 | -19 | -1 | -4 | 11 | 23 | -3.9 | 3879
37 | CC(=O)CC(C)(C)Nc1nc2ccc([N+](=O)[O-])cc2o1 | -11 | 6 | 17 | 7 | 7 | 1.9 | 3483
38 | c1ccc(CSCc2ccccc2)cc1 | -20 | x | -18 | x | x | 1.7 | 5942
39 | COc1ccc(S(=O)(=O)N2CCOCC2)cc1NC(=O)/C=C/c1ccccc1 | -29 | x | 2 | -3 | -4 | -0.4 | 5451
40 | O=C(O)c1ccc2c(=O)n(-c3ccccc3)c(=S)[nH]c2c1 | -20 | 9 | 12 | -4 | 2 | 1.2 | 3729
41 | Cc1ccc(S(=O)(=O)C(C#N)c2nc3ccccc3nc2N2CCN(C)CC2)cc1 (configuration not stated) | -4 | -2 | 14 | 5 | 3 | 1.1 | 7708
42 | CCc1cc(C(=O)Nc2cc(S(=O)(=O)N3CCOCC3)ccc2N2CCN(CC)CC2)sc1C | 1 | x | 3 | 0 | 5 | 3.4 | x
43 | CC(C)(C)C1=CC(=Nc2ccccc2N)C=C(C(C)(C)C)C1=O | -4 | 2 | 0 | 3 | 10 | 2.3 | 1710
44 | Cc1ccc2nsnc2c1S(=O)(=O)N(Cc1ccco1)Cc1cc2ccc(C)c(C)c2[nH]c1=O | -20 | x | -4 | -1 | 8 | 1.9 | 10839
45 | O=P(c1ccccc1)(c1ccccc1)N1CCCCC1 | -5 | -4 | 2 | 9 | 4 | 8.4 | 2986
46 | CN(C)c1ccc(CNc2ccc3c(c2)ncn3C)cc1 | x | -5 | 9 | 1 | 6 | 1.9 | x
47 | CSc1ncc(CNc2cc([N+](=O)[O-])ccc2C)c(N)n1 | -17 | -1 | 5 | 7 | 8 | 13 | 3832
48 | COc1ccccc1/C=N/n1cnnc1 | -12 | 6 | x | x | x | x | 2611
49 | Cc1ccc(C(=O)Oc2coc(CSc3nnc(NC(=O)c4cccs4)s3)cc2=O)cc1 | 7 | -18 | -5 | 1 | -7 | 4.6 | 2469
50 | O=S(=O)(c1ccccc1)c1nc(-c2ccco2)oc1NCc1ccccc1 | -30 | -1 | 1 | 5 | 7 | -0.5 | 10140

An excerpt of these results, with one line to a screen.
#33 CCN(CC(=O)Nc1ccc(OC)cc1)C(=O)c1ccc([N+](=O)[O-])cc1
#29 Cc1ccc(/C=C2\Oc3cc(OC(=O)N4CCOCC4)ccc3C2=O)cc1
#49 Cc1ccc(C(=O)Oc2coc(CSc3nnc(NC(=O)c4cccs4)s3)cc2=O)cc1
#26 COc1ccc2oc(CS(=O)c3ccccc3)c(C(=O)O)c2c1 (configuration not stated)

Screen / compound no.,33,29,49,26
PrP 5UTR inh,-6,5,7,-15
BJeLR viability,17,-5,-18,0
ugtP null kill,-12,-1,-5,11
Mtb hypoxia rep,-6,-4,1,2
Mtb hypoxia rep growth,4,1,-7,-5
Sa RN4220 lethal,0.7,3.3,4.6,4.4
Bead autofluor,3228,2382,2469,3917

Following part.
item | compound | PrP 5UTR inh | BJeLR viability | ugtP null kill | Mtb hypoxia rep | Mtb hypoxia rep growth | Sa RN4220 lethal | Bead autofluor
51 | Cc1ccccc1Oc1cccc(C(=O)/C(C#N)=C/N(C)C)c1 | -6 | 1 | 7 | 8 | 3 | 5.8 | 3405
52 | O=c1oc2ccccc2c2c1SC(C(F)(F)F)C2 (configuration not stated) | -13 | 3 | 6 | 15 | 12 | 5.4 | 2904
53 | CC(C)(C)N1C(=O)[C@H]2[C@@H](c3ccc(Br)cc3)N3C(=O)N(c4ccccc4)C(=O)[C@@]3(Cc3ccccc3)[C@H]2C1=O | -17 | -9 | x | x | x | x | 4059
54 | CCOC(=O)C1=CCC(c2cc3cc(OC)ccc3n2C)N(S(=O)(=O)c2ccc(C)cc2)C1C(=O)OCC (configuration not stated) | x | x | 7 | 11 | 10 | 9.8 | x
55 | CN(CC(=O)NCCc1ccc(F)cc1)Cc1ccc(Br)cc1 | 4 | 3 | 2 | 10 | 4 | 1.3 | 5378
56 | COc1ccc(S(=O)(=O)N(Cc2cc3cc(C)ccc3[nH]c2=O)CC2CCCO2)cc1 (configuration not stated) | -5 | -4 | 3 | -6 | 4 | 4.4 | 6293
57 | CCOc1ccc(NC(=O)CSc2nc(N3CCOCC3)nc(N3CCOCC3)n2)cc1 | -5 | 4 | 8 | 4 | 4 | 3.5 | 5415
58 | CC1(C)NC(=O)N(CC(=O)OCC(=O)c2ccc(Cl)s2)C1=O | -19 | x | 9 | 7 | 8 | 4.1 | 3070
59 | O=C(COC(=O)c1ccc(CO)cc1)Nc1ccc2ccccc2c1 | -15 | x | -1 | 6 | 7 | 2.9 | 3808
60 | Cc1ccc(Cn2nnc3c(=O)[nH]c(C(=O)NCc4ccco4)nc32)cc1 | -21 | -1 | -17 | -4 | 9 | 17 | 11499
61 | COc1ccc(OC)c(Nc2nc(NCc3ccco3)c3ccccc3n2)c1 | -10 | 2 | -23 | -13 | -1 | 5.0 | 4232
62 | O=S(=O)(c1ccccc1)N(Cc1nc(-c2ccccc2)no1)C1CCCCC1 | -14 | -3 | 6 | x | x | 0.3 | 2610
63 | COc1ccc(NS(=O)(=O)c2cccc(C(=O)N3CCCCCCC3)c2)cc1 | -10 | x | 3 | 5 | 5 | 5.5 | 3818
64 | O=C(NN=Cc1ccc2c(c1)OCO2)c1cc(-c2ccco2)nc2ccccc12 | x | x | -3 | 8 | 15 | 1.6 | x
65 | COC(=O)CN1C(=O)CSc2ncccc21 | -20 | -7 | 9 | 4 | 9 | 3.7 | 2494
66 | COc1cc(C(=S)N2CCCC2)ccc1O | -19 | -1 | 3 | 6 | 3 | 1.2 | 20063*
67 | COc1ccc([N+](=O)[O-])cc1NC(=O)C(C)OC(=O)Cc1ccc(OC)c(OC)c1 (configuration not stated) | -24 | x | 6 | 0 | -3 | 3.9 | 8094
68 | O=C(Nc1ccc(F)cc1F)NC1CCCc2ccccc21 (configuration not stated) | -27 | 2 | -4 | 7 | -3 | -2.2 | u
69 | CCOc1ccc(C(CC(=O)O)NC(=O)Cc2ccccc2)cc1OC (configuration not stated) | -1 | -2 | 2 | -8 | -12 | 4.7 | 3262
70 | CC(=O)c1cn(-c2ccc(Cl)cc2)c(=O)n(Cc2ccc(Br)cc2)c1=O | -30 | -4 | -5 | 7 | -5 | -0.4 | 3532
71 | Fc1ccccc1CN1CCCC(NC2CCC2)C1 (configuration not stated) | -18 | 9 | 4 | 3 | -1 | -0.9 | 4298
72 | Cc1[nH][nH]c(=O)c1N=Nc1ccccc1 | 0 | -2 | 7 | 17 | 8 | 7.4 | 6266
73 | Cc1ccc(-c2nnn(CC(=O)N(CC(=O)NC3CCCC3)c3ccc(F)c(Cl)c3)n2)o1 | -3 | 23 | -5 | x | x | -15 | 2774

An unsorted share of the library; 4% or so of the library scored in one or more.
